NS1 inh = blocks influenza NS1 protein function | Potency, µM (doses to about 46.1 µM), without a hit: at the top dose activity, positive = more growth | S. cerevisiae slowed by influenza A NS1, growth recovery by OD600 | 0.4% of 270,000 active; active means well fitted rising curve with a large enough effect; inconclusive means small, poorly fitted or top-dose-only effect; inactive means no such curve, though single readings can be large or run the other way; further: nearly all actives have a fitted effect of over 50% in size
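OD600 was taken as the measure of yeast growth restored by compound in an NS1-expressing S. cerevisiae strain. Cells had been washed out of glucose medium and diluted 1:100 into galactose -URA medium, pH 6.0.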
Cruzain inh noDet = cruzain (T. cruzi) inhibition without detergent. P25779. purified cruzain, Z-FR-AMC fluorescence, no detergent. Potency, µM, inactives show max response, negative = inhibition, hits mostly inhibitors. 2.3% of 200,000 active. AID 1476;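 further: plate controls were enzyme without inhibitor for no effect and buffer without enzyme for full effect; nearly all actives have a fitted effect of over 40% in size; top concentration of the series not given in the record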
Target sequence (P25779 123-467 limits assumed): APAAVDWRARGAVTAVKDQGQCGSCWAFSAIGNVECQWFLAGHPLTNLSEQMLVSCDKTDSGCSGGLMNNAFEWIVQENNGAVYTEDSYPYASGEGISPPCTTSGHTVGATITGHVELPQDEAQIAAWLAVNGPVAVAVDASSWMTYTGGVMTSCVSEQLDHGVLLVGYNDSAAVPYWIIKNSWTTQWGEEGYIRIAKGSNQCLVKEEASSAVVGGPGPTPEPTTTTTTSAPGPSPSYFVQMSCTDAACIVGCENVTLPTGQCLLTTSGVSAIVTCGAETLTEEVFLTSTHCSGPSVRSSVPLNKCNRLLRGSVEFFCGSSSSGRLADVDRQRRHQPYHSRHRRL
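Purified cruzain at 1.5 nM, pre-incubated 15 min with compound at room temperature in 100 mM sodium acetate pH 5.5, 5 mM DTT, 0.00005% Triton X-100. Reaction started with 2 uM Z-FR-AMC; AMC fluorescence increase over 60 s gives rate.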
Marburg entry inh = inhibitors of Marburg virus binding or cell entry. Marburg virus pseudotyped entry inhibition, cell reporter; control for the full effect not named in the record; about a third of the inactives were read at about 46 µM. Potency, µM (highest dose often 37.8 µM), inactives show top-dose activity change, negative = inhibition, actives largely listed as inhibitors. 1.8% of 300,000 active; active = well fitted inhibition curve with a large enough effect; inconclusive = small, poorly fitted or top-dose-only effect, or effect the other way; inactive = flat fitted curve, though single readings scatter; tested in HEK293 cells; about a fifth of its hits are not listed in these tables; further: on the % scale 0 is the no-effect control and ±100 the full control effect; luciferase read-out
SARS PLP yeast = inhibitors of SARS-CoV papain-like protease in yeast; S. cerevisiae expressing SARS-CoV PLpro, growth rescue; control for the full effect not named in the record; Potency, µM (top dose mostly 32.9 µM), inactives show top-dose activity, positive = growth rescue; 0.19% of 330,000 active; AID 485353; active means well fitted rising curve with a large enough effect; inconclusive means small, poorly fitted or top-dose-only effect; inactive means no such curve, though single readings can be large or run the other way; further: 0% is about no effect; nearly all actives have a fitted effect of over 55% in size; growth read by luminescence after 48 h
Cruzain inh Det = blocks cruzain activity in presence of Triton detergent | P25779 | Potency, µM, without a hit: max response, negative = inhibition, most hits filed as inhibitors | 0.43% of 200,000 active | purified cruzain, Z-FR-AMC fluorescence, 0.01% Triton;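 further: plate controls were neutral wells for no effect and buffer without enzyme for full effect; nearly all actives have a fitted effect of over 40% in size; top concentration of the series not given in the record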
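Z-FR-AMC hydrolysis (2 uM substrate) by cruzain (1.5 nM) monitored kinetically at ex 360/em 450 nm after 15 min room-temperature compound exposure; 0.01% Triton X-100, pH 5.5, 5 mM DTT.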
Lassa entry inh = Lassa virus entry inhibition. Potency, µM (doses to about 37.9 µM), for inactives: at the highest dose activity change, negative = inhibition, hits mostly inhibitors. Lassa virus pseudotype entry inhibition, cell reporter; control for the full effect not named in the record. AID 540256. 1.2% of 300,000 active; active means well fitted inhibition curve with a large enough effect; inconclusive means small, poorly fitted or top-dose-only effect, or effect the other way; inactive means flat fitted curve, though single readings scatter; tested in HEK293 cells; further: on the % scale 0 is the no-effect control and ±100 the full control effect; nearly all actives have a fitted effect of over 50% in size; luciferase read-out
StopGo reporter = lowers the luciferase signal of an FMDV 2A StopGo reporter. human cells with a luciferase reporter of 2A StopGo recoding; control for the full effect not named in the record. AID 1159524. Potency, µM (series often up to 57.9 µM), for inactives: at the highest dose signal change, negative = less light. 1.2% of 410,000 active; active = well fitted falling curve with a large enough effect; inconclusive = small, poorly fitted or top-dose-only effect; inactive = no such curve, though single readings can be large or run the other way; tested in HEK293T cells; further: on the % scale 0 is the no-effect control and ±100 the full control effect; nearly all actives have a fitted effect of over 45% in size; luciferase light after 4 h
RE007 growth inh = less growth of the S. pombe RE007 Vpr strain. Potency, µM (series often up to 92.2 µM), for inactives: at the highest dose activity change, negative = less growth. S. pombe RE007 Vpr strain, BacTiter-Glo ATP luminescence, 24 h; control for the full effect not named in the record. 0.21% of 360,000 active; active = well fitted falling curve with a large enough effect; inconclusive = small, poorly fitted or top-dose-only effect; inactive = no such curve, though single readings can be large or run the other way;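 further: on the % scale 0 is the no-effect control and ±100 the full control effect; nearly all actives have a fitted effect of over 50% in size; the assay follows cell death caused by Vpr and the record does not say whether a fall means rescue or toxicity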
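Fission yeast strain RE007, carrying one chromosomally integrated HIV-1 vpr copy, was seeded at OD 0.01 in PMG+AL medium with 23 nL pinned compound. After 24 h at 30 °C and 99% humidity, viability was read by BacTiter-Glo luminescence.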
Numbers without * were called inactive; u = inconclusive; x = not tested or not shown; & = joins results of further samples; [ ] = remark or other dose. Unless noted, the call rests on the fitted dose curve; in most records, active means well fitted curve in the direction sought with a large enough effect; inconclusive means small, poorly fitted or top-dose-only effect, or another doubt; inactive means no such curve, though single readings can be large; an effect the other way counts as inactive or inconclusive. Potency means the concentration at half of the fitted maximal effect.

Each structure is followed by: RE007 growth inh	NS1 inh	Cruzain inh Det	Marburg entry inh	SARS PLP yeast	Cruzain inh noDet	StopGo reporter	Lassa entry inh
(1) N#Cc1ccc(NC(=O)c2nc(-c3ccccc3)n(-c3ccccc3)n2)cc1
  19%	21%	-2.8%	7%	0%	u	-22%	-16%
(2) COc1ccc2[nH]c(CN3CCC(n4nccc4NC(=O)C4CC4)CC3)c(C)c2c1
  1%	-15%	x	u	9%	x	-22%	-23%
(3) Cc1ccc(C(=O)NCC(=O)OCC(=O)N2CC(C)OC(C)C2)cc1 (stereo not drawn)
  -4%	x	x	u	3%	x	-7%	10%[46.1 µM]
(4) O=C(CN1C(=O)CCSc2ccccc21)Nc1cccc(F)c1
  4%	-5%	-4.4%	-11%	0%	3%	-5%	6%
(5) COc1ccc(/C=C2/C(=O)N(c3ccccc3)N=C2C)c(OC)c1
  1%	16%	x	x	-5%	x	-6%	x
(6) Cc1c(C(=O)Nc2cccc(S(=O)(=O)N3CCCC3)c2)oc2ccccc12
  0%	u	x	x	2%	x	-13%	x
(7) COc1ccc(/C=N/NC(=O)c2cccc(NC(=O)c3ccccc3Cl)c2)cc1
  -2%	18%	x	u	18%	x	20%	u
(8) COc1ccc(CCNC(=O)CN2CCC(n3nnc4cc(F)ccc43)CC2)cc1OC
  -7%	-7%	1.1%	13%	3%	15%	x	-17%
(9) CC(OC(=O)CC1CCCC1)C(=O)Nc1ccc(S(N)(=O)=O)cc1 (stereo not drawn)
  6%	x	x	1%[46.1 µM]	-1%	x	-18%	18%
(10) CCn1cc(S(=O)(=O)NCc2ccc(OC)cc2)cn1
  10%	12%	x	x	-3%	x	-11%	x
(11) Cc1onc(-c2ccccc2)c1C(=O)NN1CCOCC1
  0%	x	x	-16%	3%	x	-13%	1%
(12) CCOC(=O)N1CCN(S(=O)(=O)c2ccc(C(=O)N(CCN(CC)CC)c3nc4c(C)cccc4s3)cc2)CC1
  1%	-7%	x	u	-3%	x	-14%	0%
(13) CCc1nnc(NC(=O)NC(C)(C)C)s1
  -3%	-3%	-1.4%	7%	24%	-13%	37%[activator]	u
(14) O=c1c2ccccc2sn1-c1ccc(S(=O)(=O)N2CCCC2)cc1
  0%	-6%	-1.4%	-18%&-18%	-5%	-6%	x	u
(15) Cc1ccc2cc3cc(C(=O)Nc4ccc(F)cc4Cl)oc3nc2c1
  x	x	0.6%	x	x	-9%	-3%	0%[46.1 µM]
(16) CCCc1nnc(SCc2ccc(C(=O)OC)o2)n1N
  -3%	1%	5.8%	4%	-4%	-12%	-13%	4%
(17) Cc1ccc(C(=O)CCC(=O)N2CCN(C(=O)c3ccco3)CC2)cc1
  8%	6%	x	0%[46.1 µM]	1%	x	-1%	-8%
(18) CCOc1ccc(NC(=O)Cn2nnc(C(=O)NCc3ccc(OC)cc3)c2N)cc1
  -9%	2%	x	x	-11%	x	0%	x
(19) Cn1ncc(C(=O)N2CCN(c3ccccc3)CC2)c1C1CCN(C(=O)OC(C)(C)C)CC1
  x	x	-1.3%	x	x	u	-13%	u
(20) COc1ccc(-c2nnc3n2N=C(C)CS3)cc1OC
  17%	-2%	3.9%	4%	1%	-5%	8%	13%
(21) Cc1sc2ncnc(N(C)CCc3ccccn3)c2c1C
  -7%	-7%	x	1%[46.1 µM]	-7%	x	-11%	-6%
(22) CC(C)NS(=O)(=O)c1ccc(NC(=O)c2cccnc2)cc1
  -1%	-4%	x	x	-1%	x	-30%	x
(23) O=C1NC2(O)C(=O)c3ccccc3C2(O)N1 (stereo not drawn)
  -9%	x	x	13%[46.1 µM]	-5%	x	18%	1%
(24) CC(C)C(=O)Nc1ccc2c(c1)nc(CCN1CCN(C)CC1)n2C
  -2%	2%	-1.3%	-3%	9%	0%	4%	1%
(25) CN1CCN(c2oc(-c3ccc([N+](=O)[O-])cc3)nc2C#N)CC1
  -7%	-7%	x	x	-1%	x	-8%	x
(26) NC(=O)C1(N2CCCCC2)CCN(C2CC(=O)N(CCc3ccccc3)C2=O)CC1 (stereo not drawn)
  -8%	2%	4.0%	28%	x	0%	0%	0%
(27) CCOC(=O)CCC(NC(=O)c1cncc(O)c1)C(=O)OCC (stereo not drawn)
  -7%	u	0.7%	-9%	4%	0%	8%	13%
(28) COc1cc2[nH]c(=O)n(CCC(=O)N3CCC(N4CCCCC4)CC3)c(=O)c2cc1OC
  12%	3%	-1.3%	15%	2%	-9%	-1%	0%
(29) Cc1cccc(N2CCN(C(=O)c3ccc(CS(=O)Cc4ccc(Cl)cc4)o3)CC2)c1C (stereo not drawn)
  10%	-72%	x	x	-13%	x	u	x
(30) CC1=C(C(=O)Nc2ccccc2C)C(c2ccc(C)o2)C2=C(CCCC2=O)N1 (stereo not drawn)
  11%	1%	-8.1%	25%	-2%	-1%	1%	-15%
(31) COc1ccc(C(=O)OCC(=O)c2ccc(C)c(S(=O)(=O)N3CCOCC3)c2)cc1OC
  -6%	-17%&-3%	x	x	-1%	x	-11%	x
(32) CC(Sc1ccsc1[N+](=O)[O-])C(=O)NCCc1ccc(Cl)cc1 (stereo not drawn)
  10%	2%	-5.1%	5%	-7%	3%	-14%	8%
(33) Cc1ccc(S(=O)(=O)N(C)C)cc1NC(=O)COC(=O)c1ccc2c(c1)OCO2
  24%	-5%	1.9%	-1%	u	-3%	0%	-1%
(34) COc1ccc(-c2ccnc3c(C#N)cnn23)cc1
  -6%	10%	x	0%[46.1 µM]	0%	x	-7%	-29%
(35) CC(C(=O)NCC1CCCCC1)N(C)CC(=O)Nc1ccc(N2CCOCC2)cc1 (stereo not drawn)
  -15%	x	x	0%[46.1 µM]	1%	x	10%	-10%
(36) CN(Cc1ccccc1)C(=O)CCS(=O)(=O)c1ccc2c(c1)n(C)c(=O)c(=O)n2C
  -8%	5%	-2.8%	1%	8%	-4%	-27%	x
(37) Cc1csc(=O)n1CC(=O)OC(C)C(=O)Nc1ccc(N(C)C)cc1 (stereo not drawn)
  -17%	x	x	u	x	x	4%	-1%
(38) Cn1c(=O)c2c(nc(SCc3ccc(F)cc3)n2C)n(C)c1=O
  -7%	6%	x	4%	0%	x	0%	2%
(39) COc1ccc(CC(=O)Nc2nnc3n2CCS3)cc1
  x	x	-2.5%	x	x	17%	-5%	10%[46.1 µM]
(40) COc1ccc(NC(=O)CSc2nc3c(cc2C#N)CN(C)CC3)cc1
  -12%	-9%	-10%	u	x	u	2%	10%
(41) O=C(NNC(=O)c1ccncc1)Nc1cccc(C(F)(F)F)c1
  1%	2%	x	x	-3%	x	27%	x
(42) COc1ccc(Cn2c(CCC(=O)NCc3ccco3)nc3cccnc32)cc1
  -4%	2%	-12%	6%	-1%	-10%	-13%	2%
(43) COc1cccc(CNc2ccc(F)c([N+](=O)[O-])c2)c1O
  3%	x	x	u	-2%	x	-9%	-18%
(44) Cc1cccc(NC(=O)c2cccc(N3C(=O)C4C5CCC(C5)C4C3=O)c2)c1C (stereo not drawn)
  1%	1%	2.5%	u	6%	-9%	-10%	0%
(45) Cn1c(=O)oc2cc(S(=O)(=O)N3CCC(C(=O)N4CCN(c5cccc(Cl)c5)CC4)CC3)ccc21
  x	x	5.3%	u	x	-8%	u	-11%[46.1 µM]
(46) CCCCNC(=O)c1ccc2c(=O)n(-c3ccccc3)c(=O)[nH]c2c1
  x	x	-2.7%	10%[46.1 µM]	x	-1%	4%	9%[46.1 µM]
(47) Cc1ccc(CCN=c2c([N+](=O)[O-])nn(-c3ccccc3)n2O)cc1
  -8%	-7%	x	2%[46.1 µM]	-5%	x	-21%	-2%
(48) CC(C)CC(=NNC(=O)c1ccncc1)c1cc(Cl)ccc1O
  -1%	x	x	u	x	x	u	3.2µM*
(49) Cc1ccc(NC(=O)CCN2CCN(CCO)CC2)cc1Br
  -13%	6%	x	x	1%	x	0%	x
(50) O=C(Nc1ccccc1)N1CCc2ccccc2C1
  -2%	-8%	4.7%	1%	-45%	-12%	20%	u
(51) CCOC(=O)c1c(C)c(C(=O)NCc2ccccc2OC)c(C)n1C
  6%	-8%	0.7%	-3%	2%	-8%	-19%	u
(52) CC(=O)c1ccc(NC(=S)NCc2ccco2)cc1
  -1%	1%	x	x	1%	x	43%	x
(53) O=C1c2ccccc2C(=O)N1CC(O)COc1ccccc1Cl (stereo not drawn)
  8%	-25%	x	x	-7%	x	51%[activator]	x
(54) O=Cc1ccc(OC(=O)C2CC(=O)N(c3ccc(F)cc3)C2)cc1 (stereo not drawn)
  2%	-5%	-0.9%	u	2%	-8%	-14%	-13%
(55) O=[N+]([O-])c1ccc(Nc2ccccc2F)nc1
  -28%	-7%	x	x	-3%	x	-9%	x
(56) C/C(=C/c1ccccc1)C(=O)N1CCN(c2ccc(F)cc2)CC1
  2%	-10%	x	x	3%	x	-9%	x

Whole records as entered above. Screens in order: RE007 growth inh, NS1 inh, Cruzain inh Det, Marburg entry inh, SARS PLP yeast, Cruzain inh noDet, StopGo reporter, Lassa entry inh
Record of C/C(=C/c1ccccc1)C(=O)N1CCN(c2ccc(F)cc2)CC1 → 2%, -10%, x, x, 3%, x, -9%, x
Record of COc1ccc(CC(=O)Nc2nnc3n2CCS3)cc1 → x, x, -2.5%, x, x, 17%, -5%, 10%[46.1 µM]
Record of COc1ccc(NC(=O)CSc2nc3c(cc2C#N)CN(C)CC3)cc1 → -12%, -9%, -10%, u, x, u, 2%, 10%
Record of O=Cc1ccc(OC(=O)C2CC(=O)N(c3ccc(F)cc3)C2)cc1 (stereo not drawn) → 2%, -5%, -0.9%, u, 2%, -8%, -14%, -13%

Assay outcomes deposited in PubChem BioAssay by National Center for Advancing Translational Sciences (NCATS).
